High-throughput results (PubChem BioAssay)
HIV Env fusion – HIV envelope-mediated fusion inhibition; HeLa-JRFL Env/CEM21 cell fusion, luciferase; inhibition, % at 12.3 µM; 1.1% of 360,000 active;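 active = mean replicate inhibition score of at least 50 and every replicate individually at or above 50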;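 note: 0% = plate neutral controls and 100% = maraviroc near 300 nM; one replicate is shown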
UUG fidelity – yeast start codon fidelity modulation | S. cerevisiae UUG-firefly luciferase reporter, luminescence/redox ratio | activity score, % at 18.7 µM | 0.13% of 350,000 active | AID 602363;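 active = replicate mean at a twofold rise or more, about +100% in these data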;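 note: firefly luciferase made from a UUG start codon reports start codon fidelity; reporter light over untreated wells divided by growth signal over untreated wells; some hits fall short of that in this replicate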
An asterisk follows results filed as active; [ ] = dose if it differs, or a comment.

Sequence of screens: HIV Env fusion | UUG fidelity
#1 O=C(C[C@H]1CC[C@@H](NC(=O)C2CCOCC2)[C@@H](CO)O1)Nc1nccs1
    -5[16.7 µM] | -7
#2 CC(=O)N(C)C[C@H]1Oc2cc(-c3ccccc3)ccc2S(=O)(=O)N([C@H](C)CO)C[C@@H]1C
    10[16.7 µM] | 3
#3 C/C=C/c1ccc2c(c1)O[C@@H](CN(C)C(C)=O)[C@@H](C)CN([C@H](C)CO)S2(=O)=O
    -3[16.7 µM] | 11
#4 Cc1noc(C)c1NC(=O)N(C)C[C@H]1Oc2ccc(NC(=O)Nc3ccc4c(c3)OCO4)cc2C(=O)N([C@@H](C)CO)C[C@H]1C
    3[16.7 µM] | 6
#5 COc1ccc(-c2cnc3c(c2)C(=O)N([C@H](C)CO)C[C@@H](C)[C@@H](CN(C)C(=O)Cc2cccnc2)O3)cc1
    1[16.7 µM] | 1
#6 C[C@H]1CN([C@@H](C)CO)C(=O)c2cccc(NC(=O)Nc3cccc4ccccc34)c2O[C@@H]1CN(C)S(C)(=O)=O
    -4[16.7 µM] | 6
#7 Cc1noc(C)c1S(=O)(=O)Nc1cccc2c1O[C@H](CN(C)Cc1ccc(C(F)(F)F)cc1)[C@H](C)CN([C@@H](C)CO)C2=O
    31[16.7 µM] | -1
#8 CCCNC(=O)Nc1ccc2c(c1)C(=O)N(C)[C@@H]1CC[C@H](CC(=O)O)O[C@@H]1CO2
    -4[16.7 µM] | -15
#9 C/C=C/c1ccc2c(c1)O[C@H](CN(C)Cc1ccccc1)[C@H](C)CN([C@@H](C)CO)S2(=O)=O
    23[16.7 µM] | -3
#10 CCCC(=O)Nc1ccc2c(c1)OC[C@@H](C)N(C)C[C@H](C)[C@@H](OC)CN(C)C2=O
    4[16.7 µM] | -8
#11 C[C@@H]1CN([C@@H](C)CO)C(=O)c2cc(NC(=O)Nc3ccc(F)cc3)ccc2O[C@@H](C)CCCCO[C@H]1CN(C)C(=O)c1ccccc1
    11[16.7 µM] | -3
#12 COC(=O)C[C@H]1CC[C@@H]2[C@@H](COc3ccc(NC(=O)c4cc(F)cc(F)c4)cc3C(=O)N2C)O1
    34[16.7 µM] | 10
#13 CNC[C@H]1OCCCC[C@@H](C)Oc2ccc(NC(=O)c3ccncc3)cc2C(=O)N([C@H](C)CO)C[C@@H]1C
    0[16.7 µM] | -5
#14 Cc1noc(C)c1S(=O)(=O)N(C)C[C@H]1OCCCC[C@@H](C)Oc2ccc(NC(=O)Nc3ccccc3)cc2C(=O)N([C@@H](C)CO)C[C@@H]1C
    -54[16.7 µM] | -3
#15 C[C@@H]1CN([C@@H](C)CO)C(=O)Cc2cc(N(C)C)ccc2O[C@H]1CN(C)C(=O)Nc1ccc(C(F)(F)F)cc1
    31[16.7 µM] | 3
#16 CCCNC(=O)N[C@@H]1CC[C@@H](CCn2cc(C3CCCC3)nn2)O[C@H]1CO
    12[16.7 µM] | -6
#17 C[C@H](CO)N1C[C@H](C)[C@H](CN(C)C(=O)CCC(F)(F)F)OCCCC[C@H](C)Oc2ccc(NC(=O)c3ccncc3)cc2C1=O
    -2[16.7 µM] | -15
#18 C[C@H]1CN([C@@H](C)CO)C(=O)c2cccc(N(C)C)c2O[C@@H]1CN(C)S(C)(=O)=O
    0[16.7 µM] | 6
#19 CCNC(=O)C[C@H]1CC[C@H]2[C@@H](COc3ccc(NC(=O)Nc4ccc(F)cc4)cc3C(=O)N2C)O1
    12[16.7 µM] | -2
#20 COc1ccccc1S(=O)(=O)N[C@@H]1CC[C@H](CCNC(=O)C2CCC2)O[C@H]1CO
    -12[16.7 µM] | -16
#21 CCCN(C)C[C@@H]1Oc2ncc(C#CC3(O)CCCC3)cc2C(=O)N([C@@H](C)CO)C[C@@H]1C
    -2[16.7 µM] | -7
#22 Cc1noc(C)c1NC(=O)N(C)C[C@@H]1Oc2c(NS(C)(=O)=O)cccc2C(=O)N([C@H](C)CO)C[C@H]1C
    -2[16.7 µM] | 2
#23 C[C@@H]1CCCCO[C@H](CN(C)C(=O)c2ccccc2)[C@H](C)CN([C@@H](C)CO)C(=O)c2cc(NC(=O)Cc3ccccc3)ccc2O1
    -31[16.7 µM] | 11
#24 C[C@@H]1CN([C@H](C)CO)C(=O)c2cccc(NS(=O)(=O)c3cn(C)cn3)c2O[C@H]1CN(C)S(=O)(=O)c1cn(C)cn1
    -9[16.7 µM] | -3
#25 Cc1ccc(S(=O)(=O)N(C)C[C@@H]2Oc3ccc(NS(=O)(=O)c4ccc(F)cc4)cc3CC(=O)N([C@H](C)CO)C[C@@H]2C)cc1
    24[16.7 µM] | 16
#26 C[C@@H]1CN([C@H](C)CO)C(=O)c2cc(C#CCC3CCCC3)cnc2O[C@H]1CN(C)C(=O)c1cnccn1
    3[16.7 µM] | 4
#27 C[C@@H]1CN([C@H](C)CO)C(=O)Cc2cc(NC(=O)c3ccncc3)ccc2O[C@H]1CN(C)C(=O)NC1CCCCC1
    -3[16.7 µM] | -12
#28 C[C@@H]1CN([C@H](C)CO)C(=O)c2cccc(N(C)C)c2O[C@@H]1CN(C)C(=O)Nc1ccc2c(c1)OCO2
    0[16.7 µM] | 3
#29 C[C@@H]1CN([C@H](C)CO)C(=O)Cc2cc(NC(=O)Nc3ccc(C(F)(F)F)cc3)ccc2O[C@H]1CN(C)Cc1ccc2c(c1)OCO2
    -7[16.7 µM] | 14
#30 Cc1ccc(S(=O)(=O)N[C@H]2CC[C@H](CCNC(=O)C3CCCCC3)O[C@H]2CO)cc1
    -14[16.7 µM] | 146*
#31 COc1ccc(NC(=O)N[C@H]2CC[C@H](CCNC(=O)Cc3ccncc3)O[C@H]2CO)cc1
    11[16.7 µM] | -1
#32 C[C@H]1CN([C@@H](C)CO)C(=O)c2cccc(NC(=O)Nc3ccc4c(c3)OCO4)c2O[C@@H]1CN(C)Cc1ccncc1
    15[16.7 µM] | 6
#33 C[C@@H]1CN([C@H](C)CO)C(=O)Cc2cc(NC(=O)Cc3ccccc3)ccc2O[C@@H]1CN(C)C(=O)NC1CCCCC1
    -21[16.7 µM] | 20
#34 CO[C@H]1CN(C)C(=O)c2ccc(NC(=O)c3ccccc3F)cc2OC[C@H](C)N(CC2CC2)C[C@H]1C
    -4[16.7 µM] | -1
#35 C[C@H](CO)N1C[C@H](C)[C@H](CN(C)Cc2ccc(Cl)c(Cl)c2)OCCCC[C@H](C)Oc2ccc(NC(=O)Nc3ccc(F)cc3)cc2C1=O
    50[16.7 µM] | -2
#36 C[C@H]1CN([C@@H](C)CO)C(=O)c2cccc(NS(=O)(=O)c3cccs3)c2O[C@H]1CN(C)S(=O)(=O)c1ccc(F)cc1
    -1[16.7 µM] | 3
#37 C[C@H](CO)N1C[C@H](C)[C@H](CN(C)C(=O)c2ccccc2F)Oc2cc(-c3ccccc3)ccc2S1(=O)=O
    21[16.7 µM] | 1
#38 C[C@H]1CCCCO[C@@H](CN(C)Cc2ccc3c(c2)OCO3)[C@@H](C)CN([C@@H](C)CO)C(=O)c2cc(NS(=O)(=O)c3cn(C)cn3)ccc2O1
    -19[16.7 µM] | -1
#39 C[C@@H]1CCCCO[C@H](CN(C)C(=O)Nc2cccc3ccccc23)[C@@H](C)CN([C@@H](C)CO)C(=O)c2cc(NC(=O)CCC(F)(F)F)ccc2O1
    3[16.7 µM] | 12
#40 COc1ccc(S(=O)(=O)Nc2cccc3c2O[C@@H](CN(C)S(=O)(=O)c2cccs2)[C@@H](C)CN([C@@H](C)CO)C3=O)cc1
    -1[16.7 µM] | 14
#41 COC(=O)C[C@H]1CC[C@@H]2[C@@H](COc3ccc(NC(=O)NCc4ccccc4)cc3C(=O)N2C)O1
    -1[16.7 µM] | -14
#42 CO[C@H]1CN(C)C(=O)c2cc(NC(=O)C3CCCCC3)ccc2OC[C@@H](C)N(C(=O)c2ccccc2)C[C@H]1C
    4[16.7 µM] | 4
#43 COc1ccc(S(=O)(=O)Nc2cccc3c2O[C@H](CN(C)S(=O)(=O)c2ccc(F)cc2)[C@H](C)CN([C@@H](C)CO)C3=O)cc1
    12[16.7 µM] | -20
#44 O=C(C[C@@H]1C=C[C@@H](NC(=O)NC2CCCCC2)[C@H](CO)O1)NCc1ccccc1
    -3[16.7 µM] | -5
#45 Cc1ccc(S(=O)(=O)N(C)C[C@@H]2Oc3ccc(NC(=O)C4CCCCC4)cc3CC(=O)N([C@@H](C)CO)C[C@H]2C)cc1
    14[16.7 µM] | -2
#46 Cc1noc(C)c1S(=O)(=O)N(C)C[C@@H]1OCCCC[C@@H](C)Oc2ccc(NS(=O)(=O)c3ccccc3)cc2C(=O)N([C@H](C)CO)C[C@H]1C
    0[16.7 µM] | 31
#47 COc1ccc(S(=O)(=O)N(C)C[C@@H]2OCCCC[C@H](C)Oc3ccc(NS(=O)(=O)c4ccc(C)cc4)cc3C(=O)N([C@@H](C)CO)C[C@@H]2C)cc1
    32[16.7 µM] | 10
#48 C[C@@H]1CN([C@@H](C)CO)C(=O)c2cc(-c3ccccc3F)cnc2O[C@H]1CN(C)C(=O)NC1CCCCC1
    -2[16.7 µM] | 18
#49 C[C@@H]1CN([C@H](C)CO)C(=O)CCCn2cc(nn2)CO[C@@H]1CN(C)C(=O)Nc1ccnc(N2CCOCC2)c1
    -10[16.7 µM] | 3
#50 C[C@@H]1CCCCO[C@H](CN(C)C(=O)Nc2cccc3ccccc23)[C@@H](C)CN([C@H](C)CO)C(=O)c2cc(NS(=O)(=O)c3ccccc3)ccc2O1
    7[16.7 µM] | 13
#51 C[C@@H]1CN([C@H](C)CO)C(=O)c2cc(NS(=O)(=O)c3cccs3)ccc2O[C@@H](C)CCCCO[C@H]1CN(C)C(=O)NC1CCCCC1
    -23[16.7 µM] | 14
#52 CC(C)NC(=O)N(C)C[C@H]1Oc2ccc(NC(=O)C3CCCCC3)cc2C(=O)N([C@@H](C)CO)C[C@@H]1C
    -6[16.7 µM] | -7
#53 Cc1noc(C)c1S(=O)(=O)Nc1ccc2c(c1)C(=O)N([C@H](C)CO)C[C@H](C)[C@H](CN(C)S(C)(=O)=O)OCCCC[C@@H](C)O2
    -10[16.7 µM] | -15
#54 CNC[C@@H]1OCCCC[C@@H](C)Oc2ccc(NC(=O)Nc3c(C)noc3C)cc2C(=O)N([C@H](C)CO)C[C@@H]1C
    10[16.7 µM] | -15
#55 C[C@H](CO)N1C[C@H](C)[C@@H](CN(C)C(=O)Nc2cccc3ccccc23)Oc2ccc(NS(=O)(=O)c3ccc(F)cc3)cc2C1=O
    -23[16.7 µM] | -4
#56 COc1ccc(CNC(=O)C[C@@H]2CC[C@H]3[C@H](COc4ccc(NC(C)=O)cc4C(=O)N3C)O2)cc1
    4[16.7 µM] | -7
#57 COCc1cn(CC[C@H]2CC[C@@H](NC(=O)Nc3ccc(OC)cc3)[C@@H](CO)O2)nn1
    -4[16.7 µM] | -5
#58 C[C@H](CO)N1C[C@H](C)[C@@H](CN(C)C(=O)c2ccc(F)cc2)Oc2ncc(C#CC3CC3)cc2C1=O
    4[16.7 µM] | 5
#59 C[C@H](CO)N1C[C@H](C)[C@H](CN(C)C(=O)Cc2ccncc2)Oc2ncc(C#Cc3ccccc3F)cc2C1=O
    16[16.7 µM] | -5
#60 CC(=O)N(C)C[C@@H]1Oc2cc(-c3ccc(C)cc3)ccc2S(=O)(=O)N([C@@H](C)CO)C[C@@H]1C
    17[16.7 µM] | 0

(cont.)
Sequence of screens: HIV Env fusion | UUG fidelity
#61 C[C@H](CO)N1C[C@H](C)[C@@H](CN(C)C(=O)Nc2cccc3ccccc23)Oc2ccc(NC(=O)C3CCCCC3)cc2CC1=O
    6[16.7 µM] | 26
#62 C[C@@H]1CN([C@H](C)CO)C(=O)Cc2cc(NS(C)(=O)=O)ccc2O[C@H]1CN(C)Cc1ccncc1
    -1[16.7 µM] | -6
#63 C[C@H]1CN([C@@H](C)CO)C(=O)Cc2cc(NS(=O)(=O)c3cn(C)cn3)ccc2O[C@@H]1CN(C)S(C)(=O)=O
    -9[16.7 µM] | -27
#64 CC(C)C#Cc1ccc2c(c1)O[C@H](CN(C)C(=O)c1cccc(F)c1)[C@H](C)CN([C@@H](C)CO)S2(=O)=O
    17[16.7 µM] | 9
#65 C[C@H]1CCCCO[C@@H](CN(C)C(=O)Nc2cccc3ccccc23)[C@@H](C)CN([C@@H](C)CO)C(=O)c2cc(NS(=O)(=O)c3cn(C)cn3)ccc2O1
    11[16.7 µM] | 3
#66 CC(=O)N(C)C[C@@H]1Oc2ncc(-c3ccccc3F)cc2C(=O)N([C@H](C)CO)C[C@H]1C
    4[16.7 µM] | 10
#67 C[C@@H]1CN([C@@H](C)CO)C(=O)c2cc(NS(=O)(=O)c3ccc(F)cc3)ccc2O[C@@H]1CN(C)C(=O)NC1CCCCC1
    2[16.7 µM] | 18
#68 CC(C)NC(=O)N(C)C[C@@H]1Oc2ncc(C3=CCCCC3)cc2C(=O)N([C@@H](C)CO)C[C@@H]1C
    25[16.7 µM] | 1
#69 COc1cccc(S(=O)(=O)N[C@H]2C=C[C@@H](CC(=O)NCc3ccccc3)O[C@@H]2CO)c1
    5[16.7 µM] | -2

Part of the list above in another layout.
#	SMILES	HIV Env fusion	UUG fidelity
63	C[C@H]1CN([C@@H](C)CO)C(=O)Cc2cc(NS(=O)(=O)c3cn(C)cn3)ccc2O[C@@H]1CN(C)S(C)(=O)=O	-9[16.7 µM]	-27
64	CC(C)C#Cc1ccc2c(c1)O[C@H](CN(C)C(=O)c1cccc(F)c1)[C@H](C)CN([C@@H](C)CO)S2(=O)=O	17[16.7 µM]	9
65	C[C@H]1CCCCO[C@@H](CN(C)C(=O)Nc2cccc3ccccc23)[C@@H](C)CN([C@@H](C)CO)C(=O)c2cc(NS(=O)(=O)c3cn(C)cn3)ccc2O1	11[16.7 µM]	3
66	CC(=O)N(C)C[C@@H]1Oc2ncc(-c3ccccc3F)cc2C(=O)N([C@H](C)CO)C[C@H]1C	4[16.7 µM]	10
67	C[C@@H]1CN([C@@H](C)CO)C(=O)c2cc(NS(=O)(=O)c3ccc(F)cc3)ccc2O[C@@H]1CN(C)C(=O)NC1CCCCC1	2[16.7 µM]	18
68	CC(C)NC(=O)N(C)C[C@@H]1Oc2ncc(C3=CCCCC3)cc2C(=O)N([C@@H](C)CO)C[C@@H]1C	25[16.7 µM]	1

The list is partial, so the mix of outcomes need not match the whole.
